High-throughput results as filed in PubChem.
GLD-1 RNA inh: GLD-1-TGE RNA interaction inhibition (C. elegans) | purified GLD-1 + fluorescein TGE RNA, fluorescence polarization | inhibition, % at 5.96 µM | 320,000 tested, 0.44% active | AID 2280;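 active = percent inhibition above a per-plate cutoff, the plate mean of test compounds plus 3 SD, cut at about 30% in these data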;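 also: 0% = DMSO wells with GLD-1 and probe and 100% = wells lacking GLD-1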
BCLXL inh: blocks human Bcl-xL binding to Bim BH3 peptide; Q07817; GST-Bcl-xL / FITC-Bim BH3 peptide fluorescence polarization; inhibition, % at 10.9 µM; 320,000 tested, 0.7% active;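 active = inhibition above the mean of all tested compounds plus 3 SD, cutoff set per campaign, cut at about 30% in these data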;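 also: 0% = DMSO wells and 100% = unlabeled Bim-BH3 peptide competitor; inhibitors lower millipolarization by displacing the labeled peptide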
GSTO1 counter: blocks human GSTO1 in RBBP9 counter-screen; recombinant GSTO1, activity-based probe fluorescence polarization; inhibition, % at 5.96 µM; 300,000 tested, 1.1% active; AID 1974;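 active = inhibition above the campaign mean inhibition plus 3 SD, cut at about 35% in these data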;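 also: 0% = GSTO1-1 with DMSO and 100% = wells lacking GSTO1-1 enzyme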
MEX-5 binding: C. elegans MEX-5 TCR-2 RNA binding activity; Q9XUB2; MEX-5/FITC-TCR2 RNA binding, fluorescence polarization; stronger effect = lower value; activity score (negative = inhibition of binding), % at 10 µM; 300,000 tested, 0.38% active; AID 1832;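 active = inhibition past about -25% in most replicates, and total fluorescence under double the plate's negative control median, limit read from the data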;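 also: 0% = DMSO and -100% = 5 µM competing unlabeled TCR2 RNA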
PAD4 FP inh: PAD4 (human) enzyme inhibition | Q9UM07 | recombinant PAD4, RCA probe fluorescence polarization | inhibition, % at 6.36 µM | 330,000 tested, 0.41% active | AID 485272;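 active = percent inhibition above a cutoff equal to the mean of all tested compounds plus 3 SD, cut at about 15% in these data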;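 also: 0% = PAD4 with RCA probe and DMSO and 100% = probe without PAD4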
Target sequence (Q9UM07 whole entry, looked up): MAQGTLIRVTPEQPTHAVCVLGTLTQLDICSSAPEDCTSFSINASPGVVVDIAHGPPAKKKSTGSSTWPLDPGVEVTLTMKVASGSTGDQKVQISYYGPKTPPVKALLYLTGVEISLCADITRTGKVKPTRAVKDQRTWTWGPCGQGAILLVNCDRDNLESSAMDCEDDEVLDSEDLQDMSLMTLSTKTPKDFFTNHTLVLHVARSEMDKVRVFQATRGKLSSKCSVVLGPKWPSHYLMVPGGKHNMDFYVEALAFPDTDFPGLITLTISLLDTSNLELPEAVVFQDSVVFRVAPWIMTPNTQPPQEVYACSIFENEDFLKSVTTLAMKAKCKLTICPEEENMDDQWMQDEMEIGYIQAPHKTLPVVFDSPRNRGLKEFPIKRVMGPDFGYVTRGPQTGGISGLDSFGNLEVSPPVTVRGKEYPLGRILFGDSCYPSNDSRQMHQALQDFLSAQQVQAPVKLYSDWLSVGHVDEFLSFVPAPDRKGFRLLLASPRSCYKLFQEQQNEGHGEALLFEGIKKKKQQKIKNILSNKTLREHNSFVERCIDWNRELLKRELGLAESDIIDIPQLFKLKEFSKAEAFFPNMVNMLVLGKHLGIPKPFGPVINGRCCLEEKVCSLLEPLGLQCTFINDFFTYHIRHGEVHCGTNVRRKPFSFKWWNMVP
* = called active by the depositor. Not all compounds are listed; rates above refer to the full screens.

Start of the data: the first two entries, to show the layout:
SMILES	GLD-1 RNA inh	BCLXL inh	GSTO1 counter	MEX-5 binding	PAD4 FP inh
COc1cccc(NC(=O)Nc2nc(-c3ccc(OC)c(OC)c3)cs2)c1	5	6	-54	0.4	-3
Cc1ccc2c(CC(=O)N3CCN(S(=O)(=O)c4ccc5c(c4)OCCO5)CC3)coc2c1	-2	-2	1	0.1	-4

The listing, repeating the preview:
SMILES	GLD-1 RNA inh	BCLXL inh	GSTO1 counter	MEX-5 binding	PAD4 FP inh
COc1cccc(NC(=O)Nc2nc(-c3ccc(OC)c(OC)c3)cs2)c1	5	6	-54	0.4	-3
Cc1ccc2c(CC(=O)N3CCN(S(=O)(=O)c4ccc5c(c4)OCCO5)CC3)coc2c1	-2	-2	1	0.1	-4
O=C(O)Cn1nc(C(F)(F)F)c2c1CCCCC2	7	4	9	-1.2	-1
CC(=O)Oc1ccc(-c2cc3ccc(OC(C)=O)cc3oc2=O)cc1	5	6	7	-2.4	1
O=C(NCC1CCCO1)c1sc(=S)n2c1[nH]c(=O)c1ccc(C(=O)N3CCCCC3)cc12 (configuration not stated)	9	21	6	-2.3	-4
COc1ccc(Nc2nc(-c3cccc([N+](=O)[O-])c3)nc3ccccc23)cc1	4	0	-1	-0.2	-5
O=C(CSc1ncnc2ccccc12)NCc1ccc2c(c1)OCO2	-2	0	5	0.8	2
COc1cc(C(=O)N/N=C/c2ccc(OC(=O)c3cccc(C)c3)c(OC)c2)ccc1O	0	4	-20	0.0	0
Cc1ccc(N=Cc2nc(-c3ccco3)oc2O)cc1	10	4	-3	-2.4	-1
CCOc1ccc(/C=N/NC(=O)c2cc3c(OC)cc(OC)c(OC)c3[nH]2)cc1	-11	3	-1	0.4	-3
CCn1c2ccccc2c2cc(NC(=O)COC(=O)c3ccc(O)cc3)ccc21	1	5	-25	-1.8	3
Cc1nc(=O)c(-c2ccccc2)c(C)n1-c1ccc(O)c(C(=O)O)c1	5	4	8	-1.5	0
COc1ccc(/C(N)=N/OC(=O)CSc2ccccc2)cc1	2	0	3	-1.0	-5

Ordered by heavy-atom count (falling): part of the list above.
SMILES	GLD-1 RNA inh	BCLXL inh	GSTO1 counter	MEX-5 binding	PAD4 FP inh
O=C(NCC1CCCO1)c1sc(=S)n2c1[nH]c(=O)c1ccc(C(=O)N3CCCCC3)cc12 (configuration not stated)	9	21	6	-2.3	-4
CCn1c2ccccc2c2cc(NC(=O)COC(=O)c3ccc(O)cc3)ccc21	1	5	-25	-1.8	3
COc1ccc(Nc2nc(-c3cccc([N+](=O)[O-])c3)nc3ccccc23)cc1	4	0	-1	-0.2	-5
COc1cccc(NC(=O)Nc2nc(-c3ccc(OC)c(OC)c3)cs2)c1	5	6	-54	0.4	-3
Cc1nc(=O)c(-c2ccccc2)c(C)n1-c1ccc(O)c(C(=O)O)c1	5	4	8	-1.5	0
COc1ccc(/C(N)=N/OC(=O)CSc2ccccc2)cc1	2	0	3	-1.0	-5
Cc1ccc(N=Cc2nc(-c3ccco3)oc2O)cc1	10	4	-3	-2.4	-1
O=C(O)Cn1nc(C(F)(F)F)c2c1CCCCC2	7	4	9	-1.2	-1
